HSD17B inhib = qHTS Assay for Inhibitors of HSD17B4, hydroxysteroid (17-beta) dehydrogenase 4. 3-hydroxyacyl-CoA dehydrogenase type-2 (Homo sapiens), Q99714. recombinant HSD17B10, NADH fluorescence kinetic; many of its hits are not listed in these tables. Potency, µM (top dose mostly 57.1 µM), without a hit: at the top dose activity change, negative = inhibition, most hits filed as inhibitors. 75,000 compounds, 7.6% hits. AID 893, 2007; active means well fitted inhibition curve with a large enough effect; inconclusive means small, poorly fitted or top-dose-only effect; inactive means no such curve, though single readings can be large or run the other way;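 further: the protocol describes HADH2 (HSD17B10) and not the HSD17B4 of the title; nearly all actives have a fitted effect of over 70% in size; most hits overshoot -100% by far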
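Enzyme plus compound, 15 min room temperature; substrate mix added (NAD+ 1 mM, beta-hydroxybutyryl-CoA 90 uM final); plates read kinetically for NADH fluorescence. HADH2 was His-tagged, E. coli-derived, 20 nM.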
* = called active by the depositor; u = inconclusive; [ ] = another dose, or the depositor's remark. On the % scale 0 is the no-effect control and ±100 the full control effect; potency means the concentration at half of the fitted maximal effect.

mol	HSD17B inhib
Cn1c(C(=O)Nc2ccc3c(c2)OCO3)cc2sccc21	-12%
CN(C)C(=O)COc1ccc2ccc(=O)oc2c1	32µM*
Cn1c(=O)c2ncn(CC(=O)Nc3cc(C(F)(F)F)ccc3N3CCOCC3)c2n(C)c1=O	3%
CCOC(=O)CN1C(=O)C(C)(C)Oc2ccc(C(=O)Nc3ccccc3OC)cc21	-9%
CCC(=O)N1CCN(C(=O)c2ccccc2)CC1	-4%
CC(C)CC1OCCC=CC1C (stereo not drawn)	2%[11.4 µM]
CS(=O)(=O)N(CC(=O)N1CCC(C(N)=O)CC1)C1CCCCC1	15%
CS(=O)(=O)N1CCN(c2nc(-c3ccccc3)cs2)CC1	-1%
CCOC(=O)CSc1nc2ccc(NC(C)=O)cc2s1	-5%
Cc1occc1C(=O)Nc1cccc2ccccc12	-21%
Cc1cc2ncn(N)c2cc1C	4%
CCn1cc(C(=O)N2CCN(c3ccccn3)CC2)c2cc(OC)c(OC)cc2c1=O	-4%
COc1ccc(C(=O)N(Cc2ccco2)Cc2cc3cc(C)ccc3[nH]c2=O)cc1OC	-24%
O=C(O)CS(=O)(=O)CC(=O)O	6%
CCC(C)Sc1nnc(Cc2cc(=O)[nH]c(=O)[nH]2)n1-c1ccc(OC)cc1 (stereo not drawn)	5%
Cc1ccccc1Cn1ccc(NC(=O)c2onc(C)c2Cl)n1	-1%
O=C(CSc1nnnn1Cc1ccccc1)NCCc1ccccc1	-12%
O=C(c1cnccn1)N1CCC2(CCCN(c3ccccc3)C2)CC1	-3%
CC/C(CC(C)(C)c1ccccc1)=N\O	-2%
O=C1C2Cc3c([nH]c4ccccc34)C(c3ccccc3)N2C(=O)C2Cc3c([nH]c4ccccc34)C(c3ccccc3)N12 (stereo not drawn)	9%[11.4 µM]

Next part; the last seven above are carried over.
mol	HSD17B inhib
O=C(O)CS(=O)(=O)CC(=O)O	6%
CCC(C)Sc1nnc(Cc2cc(=O)[nH]c(=O)[nH]2)n1-c1ccc(OC)cc1 (stereo not drawn)	5%
Cc1ccccc1Cn1ccc(NC(=O)c2onc(C)c2Cl)n1	-1%
O=C(CSc1nnnn1Cc1ccccc1)NCCc1ccccc1	-12%
O=C(c1cnccn1)N1CCC2(CCCN(c3ccccc3)C2)CC1	-3%
CC/C(CC(C)(C)c1ccccc1)=N\O	-2%
O=C1C2Cc3c([nH]c4ccccc34)C(c3ccccc3)N2C(=O)C2Cc3c([nH]c4ccccc34)C(c3ccccc3)N12 (stereo not drawn)	9%[11.4 µM]
CC(=O)c1n[nH]nc1Nc1nc(C)cc(C)n1	4%
COc1ccc(OCCSc2ncccn2)cc1	-1%
CCOC(=O)Cc1csc(NC(=O)CSc2nnnn2-c2ccc(F)cc2)n1	-2%
Cc1ccccc1OCC(=O)Nc1cccc(N(C)S(C)(=O)=O)c1	6%
O=C(O)c1ccc(OCc2ccccc2)c(Cl)c1	7%[11.4 µM]
Cn1c(=O)[nH]c(=O)c2c1nc(NCCCn1ccnc1)n2Cc1cccc(Br)c1	1%
COc1ccc(OC)c(CN2C(=O)c3ccccc3C2C(=O)NCc2cccnc2)c1 (stereo not drawn)	5%
CCOC(=O)C(NC(=O)CC)(Nc1cc(C)on1)C(F)(F)F (stereo not drawn)	12%
Cc1ccc(C(=O)C2COC(=O)C2)cc1 (stereo not drawn)	9%
Nc1cc(-c2ccccc2)ccc1O	25µM*
O=C(NCc1cccs1)c1csc2ccccc12	-5%
COCCn1nnnc1C(c1ccc(Cl)cc1)N1CCSCC1 (stereo not drawn)	2%
CCOC(=O)OCC	-4%
CCOC(=O)c1ccccc1NC(=O)CSc1ncc(C(=O)OCC)c(N)n1	-17%
O=c1cc(-c2ccc(Cl)cc2)[nH][nH]1	-7%
CCn1cnc2cc(NCc3ccncc3)ccc21	-3%
NC(=O)CCn1c(=O)oc2ccccc21	10%
NC(=O)CSc1nnc(Cn2c(=O)sc3ccccc32)n1CCc1ccccc1	-6%
O=C(CC1N=C2c3ccccc3N=C(SCc3ccccc3Cl)N2C1=O)NCc1ccco1 (stereo not drawn)	u
COC(=O)[C@@]1(Cc2ccc(OC)cc2)[C@H]2c3cc(C(=O)N(C)C)n(Cc4ccccc4)c3C[C@H]2CN1C(=O)c1ccccc1	8%
NC(=O)C1CCN(c2nc(C3CC3)nc3c2nnn3Cc2ccccc2)CC1	-6%
O=C(O)CCNCC(=O)O	1%[11.4 µM]
CC1=C(C(=O)Nc2ccc(Cl)cc2)C(c2cccs2)n2nnnc2N1 (stereo not drawn)	0%
O=C(CSc1nnc(-c2cccs2)o1)N1CCc2ccccc21	25µM*
CC1CCCCN1CCNC(=O)c1cnn2ccccc12 (stereo not drawn)	32µM*
Cc1noc(C)c1C(=O)N1CCC2(CCN(Cc3ccc(C#N)cc3)CC2)CC1	7%
FC(F)(F)c1nnc2sc(-c3ccncc3)nn12	2%
NC1=NC2(CCC(c3ccccc3)CC2)n2c(nc3ccccc32)N1 (stereo not drawn)	-7%
CC(=O)Nc1ccc(S(=O)(=O)Nc2cccc(C(=O)NC(C)(C)C)c2)cc1	4%
O=C(C1CCN(CC2CCCCC2)CC1)N1CCCC1	3%
CN1CCN(C(=O)c2cc(-c3ccc(O)cc3)on2)CC1	-3%
Cc1ccc(-n2nc3c(c2NC(=O)c2c(-c4ccccc4Cl)noc2C)CSC3)cc1	-3%
CSc1ncnc2nc[nH]c12	u
CCCCS(=O)(=O)Nc1ccc2c(c1)ncn2C1CCCCC1	3%
Cc1ccc(OC(=O)NC2CCS(=O)(=O)C2)cc1C (stereo not drawn)	9%
CC(O)CC(C)O (stereo not drawn)	-2%
Cc1cc(C)nc(NC(=O)C(C)N2C(=O)c3ccccc3C2=O)n1 (stereo not drawn)	1%
Cc1c(C(=O)Nc2cccc(C(F)(F)F)c2)oc2ccc(S(=O)(=O)N3CCOCC3)cc12	-9%
CC(C)c1cc(C(=O)Nc2cc(Cl)ccc2O)no1	4%
O=C(CCS(=O)(=O)c1cc(Br)cc2c1N(C(=O)C1CC1)CC2)NCc1ccco1	u
CCc1ccccc1NC1c2ccccc2C(=O)N1c1cccnc1 (stereo not drawn)	-4%
COc1ccc(C2CC(=O)C3=C(C2)NC(C)=C(C#N)C3c2ccc(N(C)C)cc2)cc1 (stereo not drawn)	6%
COC(=O)COc1ccc(S(=O)(=O)Nc2ccc3c(c2)OCCO3)cc1Cl	4%
Cc1sc2ncn(CC(=O)N(CC(=O)NC3CCCC3)Cc3cccs3)c(=O)c2c1C	7%
O=C(COc1ncnc2ccccc12)NC(=O)NCc1ccccc1	9%
COc1cccc(NC(=O)C2CCCN(S(=O)(=O)c3ccc(-n4cnnn4)cc3)C2)c1 (stereo not drawn)	-5%
CC1(C)NC(=O)N(CC(O)COC2CCCCC2)C1=O (stereo not drawn)	3%
Cc1cccc2nc(CNc3ccc(F)cc3)cn12	5%
CN(CCC#N)c1ncnc2scc(-c3ccccc3)c12	-26%
CC1CCN(C(=O)COC(=O)c2n[nH]c3ccccc23)CC1	u
O=C(CSc1nnc(-c2cc3ccccc3cc2O)n1Cc1ccco1)c1ccc(F)cc1	-29%
COC(=O)C(CC(C)C)NC(=O)c1cc(OC)c(OC)c(OC)c1 (stereo not drawn)	-4%
Cc1ccc2c(C(=O)CN3CCN(C4CCCCC4)CC3)c(C)[nH]c2c1	-16%
CCOC(=O)N1CCN(C(=O)c2cc3sccc3n2C)CC1	-1%
O=C(O)c1cc2nc(C3CC3)cc(C(F)(F)F)n2n1	-3%
O=C(c1ccco1)N1CCN(C(=O)c2sccc2-c2ccccc2)CC1	-6%
O=C(O)c1ccccc1NS(=O)(=O)c1ccc2c3c(cccc13)C(=O)N2	u
COC(=O)c1cccc(N2C(=O)c3ccccc3S2(=O)=O)c1	9%
CC(C)OCCCNC(=O)C1CCC(=O)N1C(C)C (stereo not drawn)	-1%
COc1ccc(CNc2nc(-c3cccnc3)nc3ccccc23)c(OC)c1	u

Going on with the list:
mol	HSD17B inhib
CCc1ccccc1NC(=O)C1CCCN(S(=O)(=O)c2c(C)noc2C)C1 (stereo not drawn)	2%
COc1cc2nc(SCC(=O)NCc3ccco3)n(Cc3ccc(Cl)cc3)c(=O)c2cc1OC	8%
CO[C@H]1C[C@@H]2C[C@H](O)C[C@@H](CC(=O)O[C@@H](/C=C\CC(C)C)C[C@@H]3CC[C@H](C)[C@@H](C1)O3)O2	6%[11.4 µM]
CSc1ccccc1NC(=O)CN(c1ccccc1)S(=O)(=O)N(C)C	-3%
Cc1[nH]c2ccccc2c1NC(=O)CN1CCN(c2cccc(C(F)(F)F)c2)CC1	-9%
Cc1ccc(-n2nnnc2SCC(=O)N2CCN(C(=O)c3ccco3)CC2)c(C)c1	3%
Cc1cc(C)nc(NS(=O)(=O)c2ccc(NC(=O)NC3CCCCC3)cc2)n1	-5%
COc1cccc2c(C)nc(Nc3nc(CSc4nnc(C)s4)cc(=O)[nH]3)nc12	2%
O=C(Oc1ccccc1)N1CCC2(CC1)CN(c1ccncc1)C2	2%
COC(=O)C1=C(C)N(Cc2ccccc2)[C@]23O[C@](C(=O)OC)(C(=O)N2C1c1ccccc1)C1CCOC(=O)C13 (stereo partly drawn)	7%[11.4 µM]
COc1ccc(CC(=O)Nc2ccc(-c3nnc(-c4ccccc4)o3)cc2)cc1	13µM*
O=C(CN1CCN(c2ncccn2)CC1)NCCC1=CCCCC1	7%
COC(=O)C1CCN(C(c2cccs2)c2sc3nc(C)nn3c2O)CC1 (stereo not drawn)	4%
COc1cc(CN2CCC(C(=O)N3CCN(c4ccccc4F)CC3)CC2)cc(OC)c1OC	-15%
O=C(NC1CC2CCCC(C1)N2C(=O)Nc1ccccc1)c1ccncc1 (stereo not drawn)	9%
CCS(=O)(=O)N1CCCC(C(=O)NCCCOC(C)C)C1 (stereo not drawn)	4%
CCOC(=O)c1cc2sc(C)cc2n1CC(=O)NCCc1ccccc1	-3%
CCOc1cc(S(=O)(=O)Nc2ccc(Cl)cn2)ccc1F	-12%
Nc1cc(=O)[nH]n1C1CCN(c2ccccc2)CC1	1%
COc1cc2nc(C3CC3)n(NC(=O)c3ccc(F)cc3)c(=O)c2cc1OC	1%
CC(=O)OC(C(=O)NCCc1ccccc1)c1cccnc1 (stereo not drawn)	3%
CC(=O)Oc1cccc(N2C(=O)CC(Nc3ccc(N4CCOCC4)cc3)C2=O)c1 (stereo not drawn)	-6%
O=C1CC(c2nc3ccccc3[nH]2)CN1c1ccccc1 (stereo not drawn)	1%
COC(=O)c1[nH]c(C)c(/C(O)=C2\C(=O)C(=O)N(CCN(C)C)C2c2ccccc2OC)c1C (stereo not drawn)	-3%
CC(=O)c1nccs1	2%
CCCCn1cc(C(C)(C)C)c(C#N)c1NC(C)=O	u
N#CC(C#N)=CNCCN1CCN(C=C(C#N)C#N)CC1	4%[11.4 µM]
O=C(NCCCN1CCCC1=O)c1cccs1	-3%
COc1ccc(NC(=O)c2ccc3c(c2)C(=O)N(Cc2cccnc2)C3=O)cc1	3%
CC(C)=CCC/C(C)=C/CCC(C)NCCN1CCNCC1 (stereo not drawn)	0%
CN(C)CCCSC(=N)N	23%
O=C(CCCCCC(=O)N(CCO)CCO)N(CCO)CCO	6%
O=c1c[n+]([O-])c2ccccc2n1OCc1ccccn1	u
Fc1ccc(C(c2nnnn2C2CCCC2)N2CCN(Cc3ccccc3)CC2)cc1 (stereo not drawn)	-1%
COC(=O)c1ccccc1NC(=O)C1CCCC1	u
O=C(OC1Cc2c(O)cc(O)cc2OC1c1cc(O)c(O)c(O)c1-c1c(C2Oc3cc(O)cc(O)c3CC2OC(=O)c2cc(O)c(O)c(O)c2)cc(O)c(O)c1O)c1cc(O)c(O)c(O)c1 (stereo not drawn)	7.9µM*
O=C(O)CCc1ccc(-c2ccc(F)cc2)n1CCC(=O)O	u
O=C(Nc1cc(C(=O)N2CCCC2)ccc1N1CCCC1)c1ccccc1F	-4%
OCC1OC(n2cnc3c(Cl)ncnc32)C(O)C1O (stereo not drawn)	6%
COc1ccc(Cl)cc1NC(=O)N1CCN(CCc2ccccc2)CC1	0%
COC(=O)c1cccc(Cn2nnc3ccccc3c2=O)c1	5%
O=C(N1CCCCCC1)N1CCN(S(=O)(=O)N2CCCCC2)CC1	2%
CCOC(=O)N1CCC(NC(=O)c2cc3c(-c4ccc(Cl)cc4)nn(C)c3s2)CC1	25µM*
CCOC(=O)C1=C(N)Oc2cc(C)n(CCc3ccc(OC)c(OC)c3)c(=O)c2C1c1cccnc1 (stereo not drawn)	5%
O=C(NCC1CCCO1)c1ccccc1-c1nc(-c2ccccc2)no1 (stereo not drawn)	-3%
Cc1cc(C(c2nnnn2Cc2ccccc2)N2CCOCC2)c(C)n1-c1ccc2c(c1)OCO2 (stereo not drawn)	-12%

An excerpt; the hit share may differ from the screen's.
